HSD17B inhib = inhibitors of human HSD17B10 dehydrogenase. Q99714. recombinant HSD17B10, NADH fluorescence kinetic; many of its hits are not listed in these tables. Potency, µM (doses to about 57.1 µM), for the others: at the top dose activity change, negative = inhibition, usual class: inhibitors. hit rate 7.6% among 75,000; active means well fitted inhibition curve with a large enough effect; inconclusive means small, poorly fitted or top-dose-only effect; inactive means no such curve, though single readings can be large or run the other way;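 further: the protocol describes HADH2 (HSD17B10) and not the HSD17B4 of the title; nearly all actives have a fitted effect of over 70% in size; most hits overshoot -100% by far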
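Enzyme plus compound, 15 min room temperature; substrate mix added (NAD+ 1 mM, beta-hydroxybutyryl-CoA 90 uM final); plates read kinetically for NADH fluorescence. HADH2 was His-tagged, E. coli-derived, 20 nM.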
An asterisk follows results filed as active; [ ] = remark or other dose. On the % scale 0 is the no-effect control and ±100 the full control effect; potency means the concentration at half of the fitted maximal effect. Only part of the results is shown (hit frequency here may not be typical).

`CC1CC(C)CN(S(=O)(=O)c2ccc(NC(=O)C3COc4ccccc4O3)cc2)C1` (stereo not drawn) gave HSD17B inhib -3%.
Screening COc1ccc(C2C3=C(OC(C)=O)c4ccccc4C3=Nc3c2c(=O)n(C)c(=O)n3C)cc1 (stereo not drawn) returned HSD17B inhib 3%.
COc1ccc(C(C)NC(=O)C2C(=O)NC3(C)CC2c2ccccc2O3)cc1 (stereo not drawn) was read as HSD17B inhib -1%.
Cc1c(C2CCN(CCc3ccccc3)CC2)noc1-c1ccc(Cl)cc1 was read as HSD17B inhib -4%.
Screening Cc1cc(C)n(CCOc2nonc2N)n1 returned HSD17B inhib 6%.
For CC1(C)Cc2c(sc3nc(NCCN4CCOCC4)n4ncnc4c23)CO1 the results were HSD17B inhib 0%.
O=C(O)c1ccc(S(=O)(=O)N(Cl)Cl)cc1 was read as HSD17B inhib 2%.
For O=C(O)CCN1C(=O)CC2(CCCCC2)C1=O the results were HSD17B inhib 0%.
`COCc1cc(C)nc(N2CCN(c3ccccc3)CC2)c1C#N` gave HSD17B inhib inconclusive.
`CCOC(=O)CSc1nc2c(cnn2-c2ccc(C)cc2)c(=O)[nH]1` gave HSD17B inhib 2%.
`CCCn1c(=O)c2c(nc(Br)n2CCC)n(C)c1=O` gave HSD17B inhib 6%.
Screening C=CCSc1nnc(-c2cc(Br)ccc2N)c(=O)[nH]1 returned HSD17B inhib -6%.
`CCOC(=O)C(NC(=O)C1CCCN1C(=O)OCc1ccccc1)C(=O)OCC` (stereo not drawn) gave HSD17B inhib -1%.
Cn1c(SCC(=O)N2c3ccccc3Sc3ccccc32)nnc1-c1ccco1 was read as HSD17B inhib -9%.
For CC(C)NC(=O)NC(=O)CSc1ncc(C(F)(F)F)cc1Cl the results were HSD17B inhib 7%.
O[C@@H](c1ccccc1)C1CCN(CCc2ccccc2)CC1 was read as HSD17B inhib 4%.
Screening O=S(=O)(Nc1ccc2c(c1)nc1n2CCOC1)c1ccccc1 returned HSD17B inhib 0%.
O=C(Cn1c(=O)oc2cc(S(=O)(=O)N3CCCC3)ccc21)Nc1ccc(C(F)(F)F)cc1 was read as HSD17B inhib 32µM*.
Screening O=S(=O)(/C=C/c1ccccc1)N1CCN(c2ccccc2)CC1 returned HSD17B inhib -2%.
Cc1noc(C)c1-c1ccc2ncnc(N(C)C)c2c1 was read as HSD17B inhib -11%.
Screening O=C(CSc1nnnn1-c1ccccc1)Nc1nsc(-c2ccccc2)n1 returned HSD17B inhib -7%.
Screening CCOC(=O)c1csc(NC(=O)c2ccc(S(=O)(=O)N3CCCC3)cc2)n1 returned HSD17B inhib inconclusive.
CCC(Sc1nc2sc(C(=O)OC)c(C)c2c(=O)n1N)C(=O)NCC1CCCO1 (stereo not drawn) was read as HSD17B inhib -12%.
For CCOC(=O)N1CCN(C(=O)CSc2nc3c(cnn3-c3ccc(Cl)cc3)c(=O)[nH]2)CC1 the results were HSD17B inhib -5%.
Screening O=C(CSc1ncn[nH]1)Nc1ccc(Br)cc1F returned HSD17B inhib -1%.
For COC(=O)[C@@]1(Cc2ccc(OC)cc2)[C@H]2c3cc(C(=O)N4CCCC4)n(Cc4ccccn4)c3C[C@H]2CN1C(=O)c1ccccc1 the results were HSD17B inhib 2%.
Screening Cc1ccc(-n2nnc3c(=O)n(Cc4ccccc4C)cnc32)cc1 returned HSD17B inhib 7%.
Cc1ccc(-n2c3c(cc(C(=O)NCCCN4CCOCC4)c2=O)C(=O)CC(C)(C)C3)cc1 was read as HSD17B inhib -29%.
`Cc1ccc(C)n1-c1cc(S(=O)(=O)N2CCOCC2)ccc1N1CCCC1` gave HSD17B inhib 2%.
For Cc1cc(=O)oc(C)c1C(=O)N1CCc2c([nH]c3ccccc23)C1C(C)C (stereo not drawn) the results were HSD17B inhib 3%.

Arranged by count of non-hydrogen atoms (low to high): part of the list above
Screening C=CCSc1nnc(-c2cc(Br)ccc2N)c(=O)[nH]1 returned HSD17B inhib -6%.
For CC1(C)Cc2c(sc3nc(NCCN4CCOCC4)n4ncnc4c23)CO1 the results were HSD17B inhib 0%.
O=C(Cn1c(=O)oc2cc(S(=O)(=O)N3CCCC3)ccc21)Nc1ccc(C(F)(F)F)cc1 was read as HSD17B inhib 32µM*.

Next section.
For O=C(Cn1cc2c(n1)CCCC2)N1CCCC1 the results were HSD17B inhib 7%.
`COc1ccccc1-c1nc(-c2ccc(Br)cc2)no1` gave HSD17B inhib inconclusive.
For CSc1nnc([C@@H](NC(=O)OC(C)(C)C)C(C)C)o1 the results were HSD17B inhib 5%.
CC(=O)NCC12CC3CC(C1)CC(C(=O)O)(C3)C2 was read as HSD17B inhib 4%.
Cn1c(=O)c2c(nc(NCc3ccco3)n2C/C=C/c2ccccc2)n(C)c1=O was read as HSD17B inhib 6%.
Screening CCOc1ccc(-c2[nH]ncc2Oc2cccc(OC)c2)c(O)c1 returned HSD17B inhib inconclusive.
For O=S(=O)(c1cc(Cl)ccc1Cl)n1nnc2ccccc21 the results were HSD17B inhib 5%.
COC(=O)c1ccc(S(=O)(=O)N2CCCC2)o1 was read as HSD17B inhib 6%.
`O=C(NCc1cn2ccsc2n1)Nc1ccc(Cl)cc1` gave HSD17B inhib 10%.
For O=C(OCc1nnc(-c2ccccc2)o1)c1ccc2c(c1)OCCO2 the results were HSD17B inhib 0%.
`COc1ccc(-n2nnc3c(SCC(=O)N4CCN(c5ccccc5)CC4)ncnc32)cc1` gave HSD17B inhib 7%.
`CCOc1cccc2cc(C(=O)Nc3cc(C)on3)c(=O)oc12` gave HSD17B inhib 2%.
For COc1ccc(-c2nnc3ccc(SCC(=O)NCc4ccco4)nn23)cc1OC the results were HSD17B inhib 4%.
Screening O=C(NCCCN1CCN(CCCNC(=O)c2ccc(F)cc2)CC1)c1ccc(F)cc1 returned HSD17B inhib -11%.
Screening Cc1ccc(NC(=O)c2ccc(S(=O)(=O)NCC3CCCO3)cc2)cc1 (stereo not drawn) returned HSD17B inhib -5%.

The last five entries of the section above lead into the next:
`COc1ccc(-n2nnc3c(SCC(=O)N4CCN(c5ccccc5)CC4)ncnc32)cc1` gave HSD17B inhib 7%.
`CCOc1cccc2cc(C(=O)Nc3cc(C)on3)c(=O)oc12` gave HSD17B inhib 2%.
For COc1ccc(-c2nnc3ccc(SCC(=O)NCc4ccco4)nn23)cc1OC the results were HSD17B inhib 4%.
Screening O=C(NCCCN1CCN(CCCNC(=O)c2ccc(F)cc2)CC1)c1ccc(F)cc1 returned HSD17B inhib -11%.
Screening Cc1ccc(NC(=O)c2ccc(S(=O)(=O)NCC3CCCO3)cc2)cc1 (stereo not drawn) returned HSD17B inhib -5%.
For COc1ncc2nc(-c3ccccc3)c(=O)n(C3CC3)c2n1 the results were HSD17B inhib 25µM*.
`O=C(NCc1ccco1)c1cc2sccc2n1Cc1ccccc1` gave HSD17B inhib -4%.
For CCOc1ccc(-c2cc(CCCC(=O)NCc3cccnc3)no2)cc1 the results were HSD17B inhib -2%.
`COc1cccc(Nc2cc(C)nc3nc(C)nn23)c1` gave HSD17B inhib -1%.
COC(=O)c1ccc(CSc2nc3sc4c(c3c(=O)n2C)CCCC4)o1 was read as HSD17B inhib -4%.
Screening Cc1ccc(SCCNC(=O)C(C)C)cc1 returned HSD17B inhib -1%.
For CC(=O)c1cc2c(cc1NC(=O)c1ccc(-n3nc(C)cc3C)cc1)OCO2 the results were HSD17B inhib 25µM*.
O=C(Nc1ccc(F)cc1)N(CCCN1CCOCC1)Cc1cc2cc3c(cc2[nH]c1=O)OCO3 was read as HSD17B inhib 32µM*.
COc1ccc(S(=O)(=O)N(CC(=O)N2CCN(C)CC2)C2CCCCC2)cc1OC was read as HSD17B inhib 8%.
For Cc1ccc(C)c(OCCCCCn2ccnc2)c1 the results were HSD17B inhib -1%.
For CN(C(=O)c1cnc(N2CCN(c3ncccn3)CC2)c2ccccc12)c1ccc(Cl)cc1 the results were HSD17B inhib -10%.
Cc1cc(C)c2[nH]c(=O)c(CN(CC3CCCO3)C(=O)C3CCCO3)cc2c1 (stereo not drawn) was read as HSD17B inhib inconclusive.
N#CCSc1nnc(Cc2cccc3ccccc23)n1C1CCCCC1 was read as HSD17B inhib -8%.
`CCC(Sc1nc(=O)cc(N)n1-c1ccccc1)C(=O)Nc1ccc(Cl)cn1` (stereo not drawn) gave HSD17B inhib 8%.
For c1cncc(-c2nnc(SCc3cccc4ccccc34)o2)c1 the results were HSD17B inhib -10%.
Screening FC(F)C(F)(F)C(F)(F)C(F)(F)c1cc(-c2ccccc2)n[nH]1 returned HSD17B inhib -18%.
For COc1ccc(OC)c(-n2c(CN3CCC(C(N)=O)CC3)nc3ccccc3c2=O)c1 the results were HSD17B inhib -16%.
`Cc1nn2c(N3CCOCC3)c3c(nc2c1-c1ccccc1)CCCC3` gave HSD17B inhib -5%.
`COc1ccc(CN(CC(=O)NCC2CCCO2)C(=O)CCC(=O)Nc2cc(C)ccn2)cc1` (stereo not drawn) gave HSD17B inhib 0%.
CCCC(=O)Nc1ccccc1NC(=O)CN(C)S(=O)(=O)c1ccccc1 was read as HSD17B inhib -2%.
Clc1ccc(Cn2cc(Br)cn2)cc1Cl was read as HSD17B inhib 32%[activator].
For O=C1CC2(CCCC2)CC(=O)N1CCCCNC[C@H]1COc2ccccc2O1 the results were HSD17B inhib -1%.
`CN1CCN(C(=O)CSc2nc(-c3cccs3)cc(-c3cccs3)c2C#N)CC1` gave HSD17B inhib 25µM*.
For Cc1cccc(-n2c(SCC(=O)Nc3nnc(C)s3)nnc2-c2ccoc2C)c1 the results were HSD17B inhib 7%.
Screening CCOC(=O)c1c(NC(=O)CSc2nnc(-c3ccccc3)n2CC)sc(C(C)=O)c1C returned HSD17B inhib 6%.
COCCOC(=O)c1c(C)oc2ccc(OC(=O)c3ccc4c(c3)OCO4)cc12 was read as HSD17B inhib -29%.
For O=c1c(-c2ccc(Br)cc2)coc2c(CN3CCOCC3)c(O)ccc12 the results were HSD17B inhib 32µM*.
CCN1CCCC1CNC(=O)c1ccc(CS(=O)(=O)c2ccccc2C)o1 (stereo not drawn) was read as HSD17B inhib 6%.
CC(=O)c1c(N2CCN(Cc3ccc4c(c3)OCO4)CC2)nc(=S)n(-c2ccccc2)c1C was read as HSD17B inhib -4%.
NCCCNC(=O)c1cc2ccccc2[nH]1 was read as HSD17B inhib inconclusive.

Brought forward from above: 3 compounds, then new ones.
CCN1CCCC1CNC(=O)c1ccc(CS(=O)(=O)c2ccccc2C)o1 (stereo not drawn) was read as HSD17B inhib 6%.
CC(=O)c1c(N2CCN(Cc3ccc4c(c3)OCO4)CC2)nc(=S)n(-c2ccccc2)c1C was read as HSD17B inhib -4%.
NCCCNC(=O)c1cc2ccccc2[nH]1 was read as HSD17B inhib inconclusive.
Screening O=C(CCN1C(=O)c2ccccc2S1(=O)=O)Nc1nc2c(s1)CCCC2 returned HSD17B inhib 0%.
`COc1ccc(NC(=O)CC2C(=O)N(c3cccc(OC)c3)C(=O)N2C2CCCCC2)cc1` (stereo not drawn) gave HSD17B inhib -1%.
Screening O=C1CCCC2=C1C(c1cccs1)n1ncnc1N2 (stereo not drawn) returned HSD17B inhib inconclusive.
`Cc1ccc(C)c(CN2CCCNC2=O)c1` gave HSD17B inhib 8%.
For CCCCCCN(C(=O)CCCCCN1C(=O)NC(c2ccc(C(F)(F)F)cc2)C(C(=O)OCc2ccccc2)=C1C)C(C(=O)NCCCC)c1ccc(OCC(=O)OC)c(C(=O)OC)c1 (stereo not drawn) the results were HSD17B inhib -15%.
`CCOC(=O)N1CCC(NCCNC(=O)c2ccccc2Cl)CC1` gave HSD17B inhib 10%.
COC(=O)c1ccc(C(NC(=O)OCc2ccccc2)/C(F)=C/[C@@H](C)C(=O)Nc2ccc(OC)cc2)cc1 (stereo partly drawn) was read as HSD17B inhib 0%.
Screening C=CCn1c(SCc2nnc(-c3ccccc3)o2)nnc1C(O)c1ccccc1 (stereo not drawn) returned HSD17B inhib 9%.
`COC(=O)[C@@H](NC(=O)NC1CCN(Cc2ccccc2)CC1)C(C)C` gave HSD17B inhib 13%.
`O=C(NCc1cccnc1)C1CCN(S(=O)(=O)c2cccs2)CC1` gave HSD17B inhib -3%.
Screening CC1(C)Cc2cccc(OCC(=O)Nc3cccnc3)c2O1 returned HSD17B inhib 7%.
For CN1C(=O)CC(N2CCC(c3nc4ccccc4[nH]3)CC2)C1=O (stereo not drawn) the results were HSD17B inhib 13%.
Screening C=CCn1c(COc2cccc(C)c2)nnc1SCC(=O)NC(=O)NCc1ccco1 returned HSD17B inhib -8%.
CC1CCCCN1c1nnc(N)s1 (stereo not drawn) was read as HSD17B inhib 0%.
`O=C(Nc1ccccc1N1CCCCC1)c1ncoc1-c1ccc(F)cc1` gave HSD17B inhib inconclusive.
`COc1ccc(-c2cc(C(=O)N3CCOCC3)c3cc(C)ccc3n2)cc1` gave HSD17B inhib 25µM*.
COC(=O)[C@@H]1[C@@H]2C[C@H]3c4[nH]c5ccccc5c4CCN3C[C@@H]2CC[C@@H]1OS(=O)(=O)O was read as HSD17B inhib -4%[11.4 µM].
Screening O=C1c2ccccc2C(=O)N1CCOCCN1C(=O)c2ccccc2C1=O returned HSD17B inhib 3%.
For O=C(NCc1cccs1)c1nc2ncccn2n1 the results were HSD17B inhib 5%.
`CCOC(=O)c1[nH]c(C)c(CN(CCc2ccc(OC)c(OC)c2)C(=O)CCCC(=O)O)c1C` gave HSD17B inhib 3%.
CC1CCOC2(O1)C(=O)N(CN1CCN(c3ccccc3F)CC1)c1ccccc12 (stereo not drawn) was read as HSD17B inhib 3%.
For C/C(CCN1CCCc2nc(C)c(C)cc21)=N\O[C@@H](C)c1cn([C@@H]2COC[C@@H]2O)nn1 the results were HSD17B inhib inconclusive.
`OCC1OC([S-])[C@H](O)C(O)C1O.[Au+]` (stereo partly drawn) gave HSD17B inhib 3.2µM*.
For O=C(Nc1ccccc1C(=O)OCC(=O)N1CCc2ccccc2C1)c1ccco1 the results were HSD17B inhib inconclusive.

Assay outcomes deposited in PubChem by National Center for Advancing Translational Sciences (NCATS).
